Mtb hypoxia inh = inhibitors of hypoxia-regulated fluorescent reporter in Mycobacterium tuberculosis. M. tuberculosis hypoxia-regulated fluorescent reporter, fluorescence. fluorescence inhibition, % (test concentration not listed). 300,000 compounds, 0.1% hits;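 active means 35 to 45% if threefold the growth effect, above 45% if 1.5-fold the growth effect; inactive means the rest, general growth blockers included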;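 further: wells of about 50 µL received 100 nL stock; 0% = vehicle wells and 100% = reference inhibitor wells; whole bacteria with a GFP reporter of the hypoxia response; strong numbers were not always called active; many hits fall short of the cut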
PrP 5UTR inh = suppresses PrP 5' UTR mRNA reporter expression; cell-based PrP 5' UTR mRNA reporter, plate reader; inhibition, % (concentration not given with the values); 340,000 compounds, 0.35% hits; AID 488862;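 active means every replicate at 50% or more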;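 further: 0 = median of the neutral control wells; tested in H4 reporter cells; numbers are from one replicate; inactives centre near -14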
Bead autofluor = flagged as autofluorescent in microsphere protease counterscreen | compound autofluorescence counterscreen, microsphere flow cytometry; stronger effect = higher value | fluorescence intensity (concentration not given with the values) | 360,000 compounds, 3.1% hits;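 active means at least 3 SD above the mean of all compounds, about 16000 in these data; inconclusive means too few beads counted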;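 further: 100 nL of 1 mM stock went into each well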
Sa ugtP lethal = growth inhibition of S. aureus ugtP deletion strain | S. aureus RN4220 ugtP deletion, OD600 growth, 16 h; some inactives read as strong as hits | growth inhibition, % (test concentration not listed) | 330,000 compounds, 0.54% hits | AID 1259309;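 active means z-score under -3 and OD600 up to 0.15 on both plates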;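 further: plate controls were untreated wells for no effect and antibiotic for full effect; wells of about 80 µL received 100 nL stock; the first replicate is given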
BJeLR lethal = BJeLR cell viability loss. BJeLR (HRASV12) viability, CellTiter-Glo ATP luminescence, 48 h; reference of the scale not given here. inhibition, % (concentration not given with the values). 300,000 compounds, 0.17% hits. AID 1554;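 active means replicate mean above 50%; inconclusive means above 50% but judged a plate artefact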;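 further: 50 nL library stock added to about 25 µL; numbers are from one replicate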
RN4220 kill = S. aureus RN4220 growth inhibition. OD600, 16 h. inhibition, % (no concentration beside the values). 330,000 compounds, 0.33% hits;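 active means z-score of -3 or lower and OD600 up to 0.18 on both plates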;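 further: plate controls were untreated cells for no effect and reference antibiotic for full effect; stock transfer was 100 nL into about 80 µL; one replicate is shown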
Mtb hypoxia inh growth = further read-out of Mtb hypoxia inh, marked with its call; growth inhibition, %; measured here: M. tuberculosis growth (absorbance);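 0% = vehicle and 100% = reference antibiotic; read after six days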
* marks the source's active call; other numbers are inactive results; u = inconclusive; x = no result given. An unsorted share of the library; about 4.1% have a hit in one of these screens.

The line under a structure holds: Mtb hypoxia inh	Mtb hypoxia inh growth	PrP 5UTR inh	Bead autofluor	Sa ugtP lethal	BJeLR lethal	RN4220 kill
CSc1n[nH]c(=O)n1-c1ccc(Cl)cc1
→ -3	3	3	4833	1	8	3.9
Cc1cc(C)n2nc(SCC(=O)NN=Cc3ccccc3F)nc2n1
→ 8	9	x	x	3	x	0.0
COc1ccc(-c2nn(CC(=O)N(C)C)c(=O)c3ccccc23)cc1
→ 5	-1	-31	8479	6	-6	7.7
COc1cc([N+](=O)[O-])ccc1NC(=O)Cc1ccccc1
→ 4	8	-12	3253	1	7	4.9
CCOC(=O)c1ccc(Oc2nc(NC)nc(Nc3ccccc3)n2)cc1
→ 0	5	-30	9941	-11	-2	2.4
COc1cc(-c2n[nH]c(=S)n2-c2ccc(Br)cc2)cc(OC)c1OC
→ 13	1	-21	3742	17	10	2.6
O=C(NNc1ccccc1)C(=O)N1CCCCC1
→ x	x	-3	1964	x	-9	x
COc1ccc(CCNC(=O)COC(=O)CNS(=O)(=O)c2ccc(SC)c([N+](=O)[O-])c2)cc1
→ -1	0	x	5759	3	x	6.5
CCOC(=O)c1ccc(OCc2nc(-c3cccs3)no2)cc1
→ 8	6	-30	5445	-1	1	4.8
COc1ccc(N2CCN(C(=O)COC(=O)CSc3ccccc3)CC2)cc1
→ -10	-9	-10	5679	1	x	0.5
NS(=O)(=O)c1ccc(CCNC(=O)c2cc(-c3ccc(Br)cc3)nc3ccccc23)cc1
→ 13	0	-15	2467	-8	-6	-2.5
CN(C)CCOC(=O)/C(=C/c1cn(C)c2ccccc12)NC(=O)c1ccccc1
→ 4	-3	-17	3624	2	0	0.6
COC(=O)c1ccc(CNC(=O)COC(=O)c2ccccc2-c2ccccc2)cc1
→ 14	8	-14	x	9	1	-0.7
CCN(CC(=O)Nc1ccc([N+](=O)[O-])cc1OC)CC(=O)NC(C)(C)C
→ -6	2	-1	2606	5	0	5.3
CCCCN(C(=O)CSc1nc2ccccc2n1CC)C1CCS(=O)(=O)C1 (stereo not given)
→ 5	2	-25	4057	4	x	4.5
CCOC(=O)c1c(NC(=O)COc2ccccc2C#N)sc2c1CC(C)(C)NC2(C)C
→ 2	0	-4	5366	4	4	3.2
CCOC(=O)c1c(NC(=O)C2=C(C)NC(=S)NC2c2ccc(F)cc2)sc(C)c1C (stereo not given)
→ 0	-3	8	2154	-24	2	-2.9
O=C1CN(c2cc(Cl)cc(Cl)c2)C(=O)CN1/N=C/c1cccnc1
→ x	x	-51	4590	x	3	x
CCCc1cc(C(=O)N2CCN(S(=O)(=O)c3ccc(OC)c(OC)c3)CC2)cs1
→ 4	1	2	10812	15	13	-1.5
COc1cc(N2C(=O)c3ccccc3C2=O)c(Cl)cc1C(=O)OCC(=O)N1CCOCC1
→ 9	9	-23	3316	6	16	2.3
Cn1c(=O)[nH]c(=O)c2c1nc(N1CCCCC1)n2CCOc1ccccc1
→ x	x	-1	2694	7	-5	0.2
CCC(C)=NNS(=O)(=O)c1ccc(C)c([N+](=O)[O-])c1
→ -6	1	x	x	11	x	5.5
Cc1ccc(N2CCN(S(=O)(=O)N3CCCCC3)CC2)c(C)c1
→ 11	3	-11	x	13	-3	12
CSc1ccccc1C(=O)NCc1ccc(S(N)(=O)=O)cc1
→ x	x	-14	2602	4	-14	-2.2
CC(C)c1ccc(NC(=O)Cn2c(=O)oc3ccccc32)cc1
→ 2	-2	x	3101	15	0	0.8
COc1ccc(C2=NOC(C(=O)NCc3ccccn3)C2)cc1OC (stereo not given)
→ 9	4	-7	9627	5	2	5.3
COc1ccc(CC(=O)N2CCN=C2SCc2ccc([N+](=O)[O-])cc2)cc1
→ 2	3	-12	3164	7	7	0.0
c1csc(C2CCCN2c2nc3nonc3nc2NC2CC2)n1 (stereo not given)
→ 9	-3	-12	4379	5	-13	4.0
CC(C)c1ccc(S(=O)(=O)N2CCC(C(=O)NCc3ccco3)CC2)cc1
→ -12	-1	-4	4454	4	x	2.2
Cc1c(OCC(=O)N2C[C@H]3C[C@@H](C2)c2cccc(=O)n2C3)ccc2c3c(c(=O)oc12)CCCC3
→ x	x	-11	5744	9	-1	-0.8

Further structures.
The line under a structure holds: Mtb hypoxia inh	Mtb hypoxia inh growth	PrP 5UTR inh	Bead autofluor	Sa ugtP lethal	BJeLR lethal	RN4220 kill
CCc1c(O)nc(SCC(=O)Nc2ccccc2C)n(-c2ccc(C)cc2)c1=O
→ 2	2	-18	6096	4	5	-4.6
O=C(COc1ccc(C2SCCS2)cc1)Nc1ccc(Cl)cc1
→ 14	13	-16	4701	7	-9	-1.0
Cc1ccc(S(=O)(=O)N2CCc3ccccc3C2)cc1
→ 11	4	-29	2978	6	4	5.7
Cc1c(NC2=NC(C)(C)Cc3ccccc32)c(=O)n(-c2ccccc2)n1C
→ 13	10	-20	3186	1	4	-5.4
Cc1cc(C)cc(N(CC(=O)NCc2ccccc2Cl)S(=O)(=O)c2c(C)[nH]c(=O)[nH]c2=O)c1
→ -10	2	-16	5577	-3	-5	-0.6
COc1ccc(CN(C)C(=O)c2ccc(OCC(=O)N3CCOCC3)c(OC)c2)cc1
→ 10	5	-17	4341	5	x	3.2
O=C(CSc1nc(O)cc(=O)n1-c1ccccc1)Nc1ccc2c3c(cccc13)CC2
→ -7	4	8	2015	-9	8	4.3
COc1ccccc1OCCNC(=O)c1cccs1
→ x	x	-10	2159	-4	2	1.2
O=S(=O)(CCS(=O)(=O)c1ccccc1)c1ccccc1
→ 11	11	-167	3482	6	x	5.9
N/C(=N\OC(=O)c1ccc(Cl)cc1)c1ccccn1
→ 4	-1	-45	21717*	-1	22	4.0
COc1ccc(S(N)(=O)=O)cc1C(=O)OCC(=O)N1CCCC(C)C1 (stereo not given)
→ 11	5	-22	3954	13	x	6.1
CC(=O)Nc1ccc2nc(CN3CCN(Cc4ccc(F)cc4)C(CCO)C3)ccc2c1 (stereo not given)
→ 13	4	-19	3727	6	2	2.6
O=C(NC1CCSc2ccccc21)c1ccc(F)cc1 (stereo not given)
→ x	x	-18	6060	1	13	1.9
CCOC(=O)N1CCN(CC(O)c2ccccc2)CC1 (stereo not given)
→ 14	12	-16	4602	8	-4	4.4
CCCOc1ccc(CNC(=S)NN=Cc2ccc([N+](=O)[O-])cc2)cc1
→ 2	4	x	x	9	x	3.5
CCc1cc(C)cc(OCCOc2ccccc2/C=N/NC(C)=O)c1
→ x	x	-29	4334	x	-7	x
CCOC(=O)N1CCN(S(=O)(=O)c2ccc(C(=O)Nc3nc4c(s3)CC(C)CC4)cc2)CC1 (stereo not given)
→ 1	-3	-26	10841	18	-5	-0.3
CCN(CC)CCOc1ccc(C=NNc2nc3c([nH]2)c(=O)n(C)c(=O)n3C)cc1
→ 14	1	-15	2966	8	x	1.7
CC1(c2ccccc2Cl)NC(=O)N(CC(=O)Nc2ccccc2OC(F)F)C1=O (stereo not given)
→ -4	11	-18	3575	0	-2	-0.9
CC1(C)CC(=O)C2=C(C1)N(Cc1ccc(F)cc1)C(=O)C2(NC(=O)c1cccnc1)C(F)(F)F (stereo not given)
→ 11	11	-7	20986*	3	-9	1.6
COc1ccc(CNC(=O)COC(=O)c2cccnc2Nc2cccc(C(F)(F)F)c2)cc1
→ x	x	-18	4001	-4	-16	3.5
O=C(c1ccco1)N1CCN(C(=O)C2CCN(S(=O)(=O)c3cccc4nsnc34)CC2)CC1
→ x	x	-15	3630	1	9	1.5
CC(OC(=O)c1cccc(N(C)C)c1)C(=O)N1CCc2ccccc2C1 (stereo not given)
→ 10	3	-92	3484	-1	x	3.9
O=C(Nc1cnc2ccccc2c1)c1ccncc1
→ 0	1	-58	5952	2	-7	1.6
CC1CCN(c2ccc(C(=O)NCc3ccco3)cc2[N+](=O)[O-])CC1
→ 6	9	-24	1988	14	-3	-4.3
CCOc1ccc(-n2c(SCC(=O)Nc3cc(C)on3)nc3c(c2=O)SCC3)cc1
→ 2	-5	-8	3072	16	3	3.3
COC(=O)c1sccc1NC(=O)c1c(C)cc(=O)oc1C
→ 6	6	-19	2991	23	1	-2.3
CCCCOc1ccc(Cn2c(=O)oc3ccccc32)cc1
→ -5	-3	-9	3818	5	5	1.2
CCc1ccccc1NC(=O)c1cc(-c2ccc(F)cc2)on1
→ 6	7	-33	3756	10	-1	4.1
CCOCCCNC(=O)c1ccc(CS(=O)(=O)Cc2ccccc2F)o1
→ -2	7	-25	11402	-5	-6	-3.3

Grouped by structure: those above with a CF3 group (two)
The line under a structure holds: Mtb hypoxia inh	Mtb hypoxia inh growth	PrP 5UTR inh	Bead autofluor	Sa ugtP lethal	BJeLR lethal	RN4220 kill
CC1(C)CC(=O)C2=C(C1)N(Cc1ccc(F)cc1)C(=O)C2(NC(=O)c1cccnc1)C(F)(F)F (stereo not given)
→ 11	11	-7	20986*	3	-9	1.6
COc1ccc(CNC(=O)COC(=O)c2cccnc2Nc2cccc(C(F)(F)F)c2)cc1
→ x	x	-18	4001	-4	-16	3.5

Further entries follow.
The line under a structure holds: Mtb hypoxia inh	Mtb hypoxia inh growth	PrP 5UTR inh	Bead autofluor	Sa ugtP lethal	BJeLR lethal	RN4220 kill
COc1ccccc1N1CCN(C(=O)c2c(C)noc2C)CC1
→ 20	6	-26	6151	7	-14	1.5
Cc1ccc(NC(=S)NC(=O)C2CCCC2)c(Br)c1
→ -6	5	-67	2880	93*	x	6.8
O=C(COC(=O)c1ccccc1O)NC(=O)c1ccc(OC(F)F)cc1
→ 14	1	4	6741	-4	x	-2.2
COc1ccc(CCNC(=O)CSc2nnc(-c3ccccc3)o2)cc1OC
→ 3	7	-5	u	-10	0	3.3
c1nc(NCc2ccc3c(c2)OCO3)c2cc(-c3ccoc3)ccc2n1
→ 2	2	12	4139	3	x	2.9
Nc1ncnc(N)c1N=Nc1ccccc1
→ -4	1	-15	4008	7	15	15
CC1CCN(C(c2cc3cc4c(cc3[nH]c2=O)OCO4)c2nnnn2CC2CCCO2)CC1 (stereo not given)
→ -3	9	-27	11623	-3	-2	-1.0
CC1CCCN(C2=C(NS(=O)(=O)c3ccc(Cl)cc3)C(=O)c3ccccc3C2=O)C1 (stereo not given)
→ 14	8	-6	1963	-19	14	9.6
CCCc1cc(C(=O)N2CCC(n3nccc3NC(=O)c3ccc(OC)cc3)CC2)no1
→ 6	0	7	5415	0	7	4.6
O=C(COc1ccc(Cl)cc1)Nc1ccc2c(c1)C(=O)NC2=O
→ -10	-3	-13	u	2	-1	3.1
CCOc1cc(CO)cc(Br)c1OCC(=O)O
→ x	x	3	2400	8	1	4.1
CC1CCN(c2ccc(NC(=O)c3cccnc3)cc2)CC1
→ 7	-2	-47	9096	12	4	3.2
COc1ccccc1NC(=O)Cn1nnc(C(=O)NCc2ccc3c(c2)OCO3)c1N
→ -2	-6	-16	6099	-8	-3	4.9
CCOc1cc(/C=N\NC(=O)Cn2nnc3ccccc32)ccc1O
→ x	x	-52	2179	x	2	x
COC(=O)c1oc2ccc(Cl)cc2c1NC(C)=O
→ 2	5	-8	5864	-13	-2	0.6
O=C(Nc1ccc(F)c(Cl)c1)Nc1csc2ccccc12
→ 8	10	-15	3972	100*	1	100*
COc1ccc(-c2nnc(SCC(=O)c3cccs3)o2)c(OC)c1
→ 4	-1	-79	7946	0	-1	3.4
CCOc1ccccc1NC(=O)Cn1nnc(C(=O)Nc2ccccc2Cl)c1N
→ 7	10	-14	3489	-6	5	3.2
Cc1ccc2c(c1C)NC(=O)CC(c1ccccc1O)=N2
→ 10	-3	-20	6311	12	-1	2.3
COc1ccc(CN2CN(C3CCCC3)CSC2=S)cc1
→ -2	8	-32	3227	11	-5	33
COc1ccc(N2CCN(CC(=O)Nc3cc(C)cc(C)c3)CC2)cc1
→ -5	-4	-10	x	0	-7	0.2
COc1ccc(NC(=O)CN2C(=O)/C(=C3\SC(=S)N(CCC(=O)O)C3=O)c3ccccc32)cc1
→ 17	10	-20	4197	8	2	3.5
Cc1cc2c(=O)[nH]c(Cc3ccccc3)nc2s1
→ 3	5	-1	2006	4	1	3.3
COc1cccc(-c2nc(CS(=O)(=O)CC(=O)N3CCOCC3)c(C)o2)c1
→ -5	1	-21	x	-8	9	-7.2
O=[N+]([O-])c1cc([N+](=O)[O-])c2c(=Nc3ccccc3)n(-c3ccccc3)n(O)c2c1
→ 23	40	-15	3727	47	3	41
COc1ccc(CCNc2ccc(C)cc2)cc1
→ 8	8	-25	8225	13	9	4.0
O=[N+]([O-])c1ccc(-n2nnnc2CN2CCOCC2)cc1
→ 5	3	-7	4679	3	-10	7.0

Source: PubChem BioAssay
